Assay outcomes (PubChem)
Rce1 inh – yeast Ras-converting enzyme inhibition; Q03530; AID 2563; 290,000 tested, 0.27% active; calls only; yeast membranes, quenched prenylated peptide cleavage fluorescence;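 active = fall in fluorescence gain of 50% or more versus controls, with final raw signal at or below 3038400; inconclusive = same 50% fall but final raw signal above 3038400; inactive = fall in fluorescence gain under 50%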;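 also: plate controls were neutral control wells for no effect and wells lacking membranes for full effect; tested at 10 µM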
Env fusion inh – blocks HIV Env-driven cell-cell fusion. HeLa-JRFL Env/CEM21 cell fusion, luciferase. inhibition, % at 12.3 µM. 360,000 tested, 1.1% active;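 active = mean replicate inhibition score of at least 50 and every replicate individually at or above 50; inconclusive = only one of the two criteria met; inactive = mean below 50 and not all replicates reaching 50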;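 also: 0% = plate neutral controls and 100% = maraviroc near 300 nM; one replicate is shown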
eIF4H inh – inhibitors of RNA binding by human eIF4H; Q15056; eIF4H fluorescence polarization binding assay; inhibition, % at 35 µM; 290,000 tested, 0.94% active;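 active = 50% or more with normal probe brightness, or confirmed in later tests; inconclusive = above 50% with abnormal brightness, or retests that disagree; inactive = below 50% or failed in later tests; about a fifth of its hits are not listed in these tables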;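 also: calls also rest on retests at 20 µM and on dose response follow-up; 0% = protein and probe with vehicle and 100% = probe without protein; strong numbers were not always called active; many hits fall short of the cut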
MT1-MMP act inh – blocks activation of human MT1-MMP; HT1080 RFP-PRO-GFP cells, GFP/RFP ratio fluorescence, overnight; percent of plate control window, DMSO zero; GFP/RFP ratio change, % at 20 µM; 360,000 tested, 0.061% active;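 active = GFP/RFP ratio change of at least 30% with cell ATP level not reduced by more than half and red fluorescence within 50% of control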; also: strong numbers were not always called active
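Test system: HT1080 RFP-PRO-GFP cells; Benchmarks: DMSO and RFP-L50D-GFP cell wells; Timing: cells overnight before dosing, compound overnight, 37 °C, 5% CO2; Compound: one 20 µM compound dose with 1% DMSO; Read-out: GFP/RFP fluorescence ratio.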
CSC inhib – blocks cancer stem cells; cancer stem cell-like cells viability, luminescence; inhibition, % at 7.5 µM; 300,000 tested, 1.1% active; AID 2717;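 active = mean at 75% or more and at least half the replicates too; inconclusive = mean and replicates disagree; tested in HMLE shEcad cells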;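 also: 0% = median of negative and 100% = median of positive control wells; the first replicate is given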
PABP polyA inh – PABP-poly(A) binding inhibition. inhibition, % at 35 µM. P11940. 290,000 tested, 1% active. PABP-poly(A) RNA binding, fluorescence polarization. AID 2014;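 active = 50% or more with normal probe brightness, or confirmed in later tests; inconclusive = above 50% with abnormal brightness, or retests that disagree; inactive = below 50% or failed in later tests; about a fifth of its hits are not listed in these tables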;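 also: calls also rest on retests at 20 µM and on dose response follow-up; controls were probe without protein and protein plus probe with vehicle; some compounds called inactive have numbers as strong as hits; many hits fall short of the cut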
Target sequence (P11940 whole entry, looked up): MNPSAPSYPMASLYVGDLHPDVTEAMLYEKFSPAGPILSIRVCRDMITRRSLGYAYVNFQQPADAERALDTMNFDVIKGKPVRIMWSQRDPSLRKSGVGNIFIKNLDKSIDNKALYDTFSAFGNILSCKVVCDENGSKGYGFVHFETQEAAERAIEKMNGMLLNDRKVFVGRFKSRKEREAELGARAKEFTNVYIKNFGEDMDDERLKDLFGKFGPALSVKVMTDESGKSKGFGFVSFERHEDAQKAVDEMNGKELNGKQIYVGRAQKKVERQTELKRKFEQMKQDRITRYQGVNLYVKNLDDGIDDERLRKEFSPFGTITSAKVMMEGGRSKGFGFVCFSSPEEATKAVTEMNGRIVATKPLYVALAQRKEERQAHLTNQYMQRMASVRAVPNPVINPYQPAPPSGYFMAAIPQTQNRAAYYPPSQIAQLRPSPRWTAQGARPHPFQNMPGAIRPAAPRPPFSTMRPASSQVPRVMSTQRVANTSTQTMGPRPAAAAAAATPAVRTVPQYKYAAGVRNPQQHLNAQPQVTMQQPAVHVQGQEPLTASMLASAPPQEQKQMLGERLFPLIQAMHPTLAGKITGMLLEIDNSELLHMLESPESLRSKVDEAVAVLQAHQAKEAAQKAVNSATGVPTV
Yeast UUG start – yeast start codon fidelity modulation | S. cerevisiae UUG-firefly luciferase reporter, luminescence/redox ratio | activity score, % at 18.7 µM | 350,000 tested, 0.13% active | AID 602363;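 active = replicate mean at a twofold rise or more, about +100% in these data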;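 also: firefly luciferase made from a UUG start codon reports start codon fidelity; reporter light over untreated wells divided by growth signal over untreated wells; some hits fall short of that in this replicate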
MT1-MMP act inh RFP – further read-out of MT1-MMP act inh, marked with its call; RFP signal change, %; measured here: RFP expression control read;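 0 = vehicle wells; hits needed this value within 50% of zero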
Numbers without * were called inactive; i = inactive; u = inconclusive; x = no result given.

mol | Rce1 inh | Env fusion inh | eIF4H inh | MT1-MMP act inh | MT1-MMP act inh RFP | CSC inhib | PABP polyA inh | Yeast UUG start
COc1ccc(C)cc1S(=O)(=O)N1c2ccccc2CC1C (stereo unspecified) | i | 18 | -7 | -5 | 0 | -3 | -2 | -13
COC(=O)CSc1nc(N)c(C#N)c(C(C)C)c1C#N | i | -123 | -5 | -2 | 6 | -12 | -3 | 0
Cc1nc2sc3c(c2c(=O)[nH]1)CCCCC3 | i | 10 | -7 | -3 | 0 | -6 | -7 | 14
COc1cccc(/C=C(\C#N)c2nc3ccc(C)cc3[nH]2)c1OCC(=O)O | i | -3 | 2 | -1 | 6 | 2 | 8 | -17
c1ccc(-c2ccc3ccccc3n2)cc1 | i | x | x | 1 | 4 | 13 | x | -9
COc1ccccc1CN(C)C(=O)c1cccc(S(=O)(=O)N2CCCC2)c1 | x | 2 | x | -2 | 1 | x | x | 13
COc1ccc(C)cc1S(=O)(=O)Nc1cc2c3c(c1)CC(=O)N3CCC2 | i | -4 | x | 3 | -1 | -26 | x | -22
COc1ccc(OCC(=O)N/N=C(\C)c2ccc(-n3ccnc3)cc2)cc1 | i | 18 | -6 | 1 | 8 | -1 | 40 | x
NC(=O)SCC(=O)Nc1ccc(Cl)cc1 | i | x | 9 | 0 | 2 | 8 | -3 | -22
Cc1cc(S(=O)(=O)NCCc2ccncc2)cc(C)c1F | i | 9 | x | 4 | 4 | -10 | x | x

A run of entries from further up:
mol | Rce1 inh | Env fusion inh | eIF4H inh | MT1-MMP act inh | MT1-MMP act inh RFP | CSC inhib | PABP polyA inh | Yeast UUG start
COc1ccc(C)cc1S(=O)(=O)N1c2ccccc2CC1C (stereo unspecified) | i | 18 | -7 | -5 | 0 | -3 | -2 | -13
COC(=O)CSc1nc(N)c(C#N)c(C(C)C)c1C#N | i | -123 | -5 | -2 | 6 | -12 | -3 | 0
Cc1nc2sc3c(c2c(=O)[nH]1)CCCCC3 | i | 10 | -7 | -3 | 0 | -6 | -7 | 14

(continued)
mol | Rce1 inh | Env fusion inh | eIF4H inh | MT1-MMP act inh | MT1-MMP act inh RFP | CSC inhib | PABP polyA inh | Yeast UUG start
Cc1ccc(C(=O)N2CCC(C(=O)c3ccc(Cl)cc3)CC2)cc1 | i | -7 | 2 | 0 | -10 | -17 | 0 | -9
CCN1CCn2c3c(c4cccc(C)c42)CCCC31 (stereo unspecified) | i | -4 | 6 | -3 | 0 | 18 | 4 | -7
COc1ccc(-c2ccc(C#N)c(SCC(=O)NC3CC3)n2)cc1OC | i | -4 | -9 | 5 | 4 | -1 | 5 | x
NS(=O)(=O)c1ccc(CNC(=O)CNC(=O)Cc2ccccc2)cc1 | i | 0 | -4 | 3 | 6 | -7 | 14 | -19
CCOC(=O)C(=O)N1CCN(c2ccccc2OC)CC1 | i | -30 | -3 | 0 | 4 | -3 | -1 | 1
Cc1cccc(/C=N/NC(=O)c2ccccc2OCc2cccc(Br)c2)n1 | i | -1 | -3 | -1 | -8 | x | -3 | -15
CN(C)c1ccc(CNc2ncc(Br)cc2Br)cc1 | x | x | -5 | 5 | 0 | 7 | 0 | 4
COC(=O)c1cc(NC(=O)COC(=O)C2CCC2)cc(C(=O)OC)c1 | i | 12 | x | 5 | 2 | -9 | x | -2
C=CC[C@@H](Cc1ccc(F)cc1)C(=O)OC[C@@H]1CCCN1C(=O)[C@H](CC=C)CC(=O)NCCO | x | 18 | x | 3 | 1 | -7 | x | 2
COc1ccc(CCN2C(=O)CC(N3CCOCC3)C2=O)cc1OC (stereo unspecified) | i | x | -5 | 5 | 2 | -4 | 0 | -12
N#Cc1ccc(OCC(=O)OCC(=O)c2ccccc2)cc1 | x | -6 | x | -2 | 0 | -17 | x | -6
CCN(CC)C(=O)C1=C(C)N(CCC2=CCCCC2)C(=O)C(CC(=O)NCC2CCCCC2)C1 (stereo unspecified) | x | 1 | x | 1 | 1 | x | x | 4
O=C(CSc1nc2ccccc2n1Cc1ccccc1Cl)N/N=C/c1ccccc1C(=O)O | i | 20 | 3 | 0 | -4 | -10 | 14 | x
NC(=O)c1ccc(NC(=O)COC(=O)CC(NC(=O)c2ccccc2Cl)c2ccccc2)cc1 (stereo unspecified) | i | 22 | -3 | 5 | 5 | -13 | 1 | x
O=C(CCC1CCCC1)N1CCN(C(=O)COc2ccccc2)CC1 | i | x | 8 | -1 | -1 | -4 | -4 | 7
CCCCn1c(N)c(N(CC)C(=O)C2CCN(C(=O)c3ccccc3C)CC2)c(=O)[nH]c1=O | x | -15 | x | 0 | 0 | x | x | 3
C=C(C)C1CC=C(C)/C(=N/NC(=O)CCCNc2cccc(C)c2)C1 (stereo unspecified) | x | 2 | 5 | 2 | -3 | 42 | -4 | x
COc1cccc(CC(=O)N2CCC(CCC(=O)Nc3cccc(OC)c3)CC2)c1 | i | -1 | x | 2 | 3 | -4 | x | -8
Cc1cc(CN(C)C(=O)CC2C(=O)NCCN2Cc2c(F)cccc2Cl)n[nH]1 (stereo unspecified) | i | 65* | -1 | -7 | -8 | -8 | -6 | x
O=C(Nc1ccccc1)c1cccc(S(=O)(=O)Nc2ccccn2)c1 | i | x | -10 | 4 | 3 | 0 | u | x
Cc1nc2c(C(=O)Nc3ccc(N4CCCC(O)C4)cc3)snc2c(=O)[nH]1 (stereo unspecified) | i | 30 | 38 | 0 | -2 | 13 | 34 | -7
O=C(CSc1ccccc1F)NC(=O)c1ccc(Cl)cc1 | x | -48 | x | 0 | -2 | -4 | x | -13
COc1cc(OC)cc(-c2nc3ccccc3c(=O)n2NC(=O)c2cccnc2Cl)c1 | i | -16 | -1 | -2 | 6 | -11 | -18 | -8
O=C1[C@H]2[C@@H](c3ccc(F)cc3)N3C(=O)N(c4ccccc4)C(=O)[C@@]3(Cc3ccccc3)[C@H]2C(=O)N1C1CCCCC1 | i | 107* | x | -2 | -7 | 5 | x | -14
COc1ccc(N2C3=[N+](CC2(C)O)c2ccccc2CC3)cc1 (stereo unspecified) | i | x | -4 | 2 | 3 | -9 | 13 | -8
c1ccc(CSc2nnc(Cc3ccccc3)o2)cc1 | i | -1 | -6 | 1 | 1 | x | -8 | x
CC(C)CNC(=O)C1(C)CCCCCN1C(=O)c1cc(C#N)cs1 (stereo unspecified) | x | 15 | x | 3 | 6 | x | x | -9
COC(=O)C(Cc1ccc(OC(=O)c2ccccc2C)cc1)N1Cc2ccccc2C1=O (stereo unspecified) | i | x | -5 | -3 | -10 | 4 | -3 | x
Cc1ccc(Cn2nnc3c(=O)n(CC(=O)c4ccccc4)cnc32)cc1 | i | 4 | -8 | 0 | -7 | 1 | 0 | -16
CC1(C)CC(=O)C=C(Nc2ccccn2)C1 | i | 31 | -6 | 9 | 3 | -2 | 3 | -3

Structures above containing a cyano group (five):
mol | Rce1 inh | Env fusion inh | eIF4H inh | MT1-MMP act inh | MT1-MMP act inh RFP | CSC inhib | PABP polyA inh | Yeast UUG start
COC(=O)CSc1nc(N)c(C#N)c(C(C)C)c1C#N | i | -123 | -5 | -2 | 6 | -12 | -3 | 0
COc1cccc(/C=C(\C#N)c2nc3ccc(C)cc3[nH]2)c1OCC(=O)O | i | -3 | 2 | -1 | 6 | 2 | 8 | -17
COc1ccc(-c2ccc(C#N)c(SCC(=O)NC3CC3)n2)cc1OC | i | -4 | -9 | 5 | 4 | -1 | 5 | x
N#Cc1ccc(OCC(=O)OCC(=O)c2ccccc2)cc1 | x | -6 | x | -2 | 0 | -17 | x | -6
CC(C)CNC(=O)C1(C)CCCCCN1C(=O)c1cc(C#N)cs1 (stereo unspecified) | x | 15 | x | 3 | 6 | x | x | -9

Next entries.
mol | Rce1 inh | Env fusion inh | eIF4H inh | MT1-MMP act inh | MT1-MMP act inh RFP | CSC inhib | PABP polyA inh | Yeast UUG start
CC(C)CC(NC(=O)C(Cc1ccc(OCc2ccccc2)cc1)NC(=O)OC(C)(C)C)C(N)=O (stereo unspecified) | i | 3 | -9 | 3 | 0 | -14 | -7 | -16
CCOC(=O)C(C(=O)Nc1cccc(C)n1)C1CCCCC1 (stereo unspecified) | i | 4 | -5 | -7 | -7 | 5 | 8 | -4
Cc1c(F)cccc1NS(=O)(=O)c1ccccc1C#N | i | x | 8 | 11 | 2 | -5 | 5 | -3
Cc1cc(C)nc(N/C(=N/S(=O)(=O)Cc2ccccc2)Nc2ccccc2)n1 | x | 13 | -1 | -5 | -4 | 7 | 2 | -5
CN(C)c1ccc(/C=N/NC(=O)c2ccc(Cl)cc2)cc1 | i | x | -10 | 0 | -3 | 2 | -2 | -13
CC(C)(C)c1ccc(C(=O)CC(Sc2ccc(Cl)cc2)C(=O)O)cc1 (stereo unspecified) | i | 6 | -12 | -8 | -8 | 79* | -12 | x
COc1ccc(C2CC(C(F)(F)F)n3nc(C(N)=O)c(Cl)c3N2)cc1OC (stereo unspecified) | i | 35 | 3 | -2 | -4 | -3 | -12 | 5
C[C@H](CO)N1C[C@H](C)[C@@H](CN(C)S(=O)(=O)c2ccccc2)Oc2c(NC(=O)Cc3ccccc3)cccc2C1=O | x | -42 | x | -4 | -1 | 5 | x | -3
O=C(COC(=O)[C@@H]1CCCN1S(=O)(=O)c1ccc(Cl)cc1)NC12CC3CC(CC(C3)C1)C2 | i | 31 | -10 | 3 | 6 | -11 | -1 | x
Cc1noc(C)c1-c1nc(CS(=O)(=O)c2ccc(Cl)cc2)no1 | i | -7 | -12 | -1 | -1 | 0 | 0 | x
Cc1ccc(C2(C)NC(=O)N(CC(=O)Nc3cccnc3Cl)C2=O)cc1 (stereo unspecified) | i | -1 | 26 | -1 | 0 | 1 | 6 | x
CCOC(=O)CN(Cc1ccc(OC)c(OC)c1)S(=O)(=O)c1ccc(OC)cc1 | i | x | -5 | 0 | -2 | -4 | -2 | 25
C[N+]1=C2CCCCCN2C(O)(c2ccccc2)C1 (stereo unspecified) | x | x | x | -3 | 4 | -14 | x | -10
O=C(O)CCSc1nnc(SCC(=O)NCC(F)(F)F)s1 | i | 9 | 4 | -7 | 2 | -7 | 3 | x
Cc1cc(S(=O)(=O)Nc2cccnc2)c(Cl)cc1Cl | i | -32 | 2 | -1 | 1 | -4 | -1 | -2
Cn1nc(C(=O)Nc2ccc(S(=O)(=O)Nc3ncccn3)cc2)ccc1=O | i | -12 | 43 | -1 | 3 | -4 | 21 | -12
C[C@H](NC(=O)[C@@H]1Cc2ccccc2CN1C(=O)OC(C)(C)C)C(=O)NCC1CCCO1 (stereo partly specified) | i | -11 | 2 | -2 | 0 | -5 | 1 | -14
Cc1ccc(C(=O)O)cc1N=Cc1cc(Br)cc(Br)c1O | i | x | 5 | 2 | 5 | 6 | 20 | x
COc1ccc(-c2cc(NC=O)c3ncc(-c4cccc(C(=O)N(C)C)c4)n3c2)cn1 | x | 23 | x | -10 | 6 | x | x | -8
Cc1ccc(/C=N/NC(=O)c2cc3c(s2)CCCC3)o1 | x | x | x | 1 | 5 | -3 | x | -11
CC(C)(C)c1nnc2sc(SCC(O)=C(C#N)c3nc4ccccc4[nH]3)nn2c1=O | x | -33 | x | -11 | -5 | x | x | -15
O=C(O)CC1NC(=S)N(Cc2ccccc2)C1=O (stereo unspecified) | x | -18 | x | -2 | 5 | x | x | -10
